Bioassay records: PubChem, National Center for Advancing Translational Sciences (NCATS)
Sfp PPTase inh – Sfp phosphopantetheinyl transferase inhibition | Q9F4F7 | Biochemical Sfp PPTase activity, qHTS | Potency, µM, for the others: max response, negative = inhibition, most hits filed as inhibitors | hit rate 3.5% among 310,000 | AID 1490; active means well fitted inhibition curve with a large enough effect; inconclusive means small, poorly fitted or top-dose-only effect, or another doubt; inactive means no such curve, though single readings can be large or run the other way;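 further: the enzyme is Sfp with the accession as filed and its product quenches rhodamine fluorescence; potency means the concentration at half of the fitted maximal effect; 0% = enzyme reaction without inhibitor and -100% = no enzyme wells; top concentration of the series not given in the record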
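Fluorescence-quenching assay: 15 nM Sfp-PPTase preincubated 15 min at room temperature with compound, then 5 uM rhodamine-CoA and 12.5 uM BHQ-2-labelled YbbR peptide added. Fluorescence (ex 525/em 598 nm) read at start and after 30 min; difference gives rate.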
TRPV1 potentiator – human TRPV1 potentiation; Q8NER1; TRPV1-expressing cells, Fluo-8 calcium influx, capsaicin EC20 potentiation; host cell line not named in the record; control for the full effect not named in the record; potentiation, % at 8.33 µM; hit rate 0.02% among 320,000; AID 540277; active means potentiation above 80%; inconclusive means 30% to 80%; inactive means below 30%; further: 0% is about no effect
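Fluo-8 calcium influx in TRPV1-expressing cells, kinetic read (ex 480/em 520 nm). Compound added and read 3 min for agonist activity, followed by capsaicin at EC20 final and 2 min further read for enhancement.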
PINK1 expr mod – changes PINK1 expression. PINK1 immunofluorescence, high-content cytometry, 24 h. Potency, µM (highest dose often 76.6 µM), for inactives: at the highest dose activation (PINK1 increase), most hits filed as activators. hit rate 0.2% among 410,000. AID 624263; active = well fitted activation curve with a large enough effect; inconclusive = small, poorly fitted or top-dose-only effect; inactive = flat fitted curve, though single readings scatter; cell line not stated here;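 further: potency means the concentration at half of the fitted maximal effect; % of control where 0% means no effect; nearly all actives have a fitted effect of over 65% in size; a mitochondrial uncoupler was the plate control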
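Stable cell line treated 24 h with compounds at 5 concentrations (CCCP controls), then fixed and immunostained for PINK1 plus nuclear and cell stains; PINK1 immunofluorescence quantified by laser-scanning microplate cytometry.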
CtBP-E1A inh – inhibitors of CtBP/E1A interaction | hit rate 0.49% among 340,000 | activity change, % (test concentration not listed) | AlphaScreen GST-E1A/His-CtBP binding, 1536-well; active compounds read low; control for the full effect not named in the record; in the data active means activity change below about -65%; inconclusive means about -30% to -65%; inactive means above about -30%; further: on the % scale 0 is the no-effect control and ±100 the full control effect
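AlphaScreen with 125 nM GST-E1A and 125 nM His-CtBP (5X stocks) in Tris pH 8.0, 300 mM NaCl, BSA, Tween 20, TCEP. Compounds preincubated 2 h at 37 deg C, then glutathione donor/nickel acceptor beads added for 1 h at 37 deg C in dark.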
D2 potentiator – human D2 receptor positive allosteric modulation; P14416; DiscoveRx D2 beta-arrestin cells, luminescence, 90 min; 100% = 57 uM dopamine signal; potentiation, % (concentration not given with the values); hit rate 0.23% among 360,000; active = potentiation of 50% or more; inconclusive = 30% to 50%; inactive = 30% or less;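 further: compound concentration not given in the record; tested on top of an EC20 dose of dopamine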
Target sequence (P14416 whole entry, looked up): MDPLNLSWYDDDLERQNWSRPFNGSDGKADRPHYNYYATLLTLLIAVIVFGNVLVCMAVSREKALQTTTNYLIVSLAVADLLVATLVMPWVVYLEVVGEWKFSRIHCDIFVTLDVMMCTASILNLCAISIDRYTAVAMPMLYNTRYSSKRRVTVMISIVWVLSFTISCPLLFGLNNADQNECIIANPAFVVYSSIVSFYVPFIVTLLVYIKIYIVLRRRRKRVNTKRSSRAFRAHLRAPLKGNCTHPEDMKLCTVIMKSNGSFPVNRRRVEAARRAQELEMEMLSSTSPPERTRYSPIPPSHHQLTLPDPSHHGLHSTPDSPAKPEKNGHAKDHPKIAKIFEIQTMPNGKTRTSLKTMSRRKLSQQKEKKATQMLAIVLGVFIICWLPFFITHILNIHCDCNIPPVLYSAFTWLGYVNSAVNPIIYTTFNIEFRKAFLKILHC
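PathHunter beta-arrestin assay in DiscoveRx D2 cells. Compounds were added with an EC20 of dopamine (50 nM final) for 90 min at 37 deg C. Luminescence was read 1 h after detection reagent, with 57 uM dopamine as the EC100 control.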
Six1-Eya2 blk – Six1/Eya2 interaction inhibition | Q15475+O00167 | AlphaScreen GST-Six1/His-Eya2 binding, biochemical; active compounds read low; control for the full effect not named in the record | activity change, % (test concentration not listed) | hit rate 0.56% among 360,000 | AID 651725; in the data active = activity change below about -65%; inconclusive = about -30% to -65%; inactive = above about -30%; further: on the % scale 0 is the no-effect control and ±100 the full control effect
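Compounds are tested against tagged Six1 and Eya2 proteins bridged by glutathione donor and nickel acceptor beads; after a one-hour incubation at 37 °C without light, AlphaScreen emission is recorded.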
D2 agonist – activates the human D2 dopamine receptor; hit rate 0.084% among 360,000; DiscoveRx PathHunter D2 beta-arrestin, luminescence, 90 min; 100% = 57 uM dopamine signal; activation, % (no concentration beside the values); in the data active = activation above about 40%; inconclusive = about 15% to 40%; inactive = below about 15%; further: compound concentration not given in the record; the text of the record calls up to 30% inactive
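Agonist mode: compounds alone added to overnight-plated D2 PathHunter cells for 90 min at 37 C, with 57 uM final dopamine (EC100) defining full response. Beta-arrestin recruitment detected by chemiluminescent reagent, read after 1 h at ambient temperature.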
The depositor's hits bear a star; ? = inconclusive; · = no result given; & = joins results of further samples; [ ] = dose if it differs, or a comment.

A first look (two entries):
1. CN(CCc1ccccn1)C(=O)c1cc(COc2ccc(F)cc2F)on1
2. Cc1ccc(-c2csc3ncn(CC(=O)NCC(c4ccco4)N4CCCC4)c(=O)c23)cc1 (stereo unspecified)

compound no.	1	2
Sfp PPTase inh	14.6%	·
TRPV1 potentiator	-13.0	1.0
PINK1 expr mod	3.2%	-0.8%
CtBP-E1A inh	0.0	·
D2 potentiator	-16.4	-10.6
Six1-Eya2 blk	26.1	-9.7
D2 agonist	-4.4	-2.3

Main list (from the top)
1. CN(CCc1ccccn1)C(=O)c1cc(COc2ccc(F)cc2F)on1
2. Cc1ccc(-c2csc3ncn(CC(=O)NCC(c4ccco4)N4CCCC4)c(=O)c23)cc1 (stereo unspecified)
3. O=C(Nc1ccccc1-c1ccccc1NC(=O)c1ccco1)c1ccco1
4. CCCNC(=O)CCCN1C(=O)c2ccccc2Sc2ncccc21
5. CCC(C(=O)NC1CCCC1)N(C(=O)Cn1nnc(-c2ccc(C)o2)n1)c1ccc(F)cc1 (stereo unspecified)
6. Cc1cnc(C(=O)OCC(=O)Nc2cc(S(=O)(=O)N3CCCCC3)ccc2Cl)cn1
7. CCOC(=O)c1sc(NC(=O)c2cccc(S(=O)(=O)N3CCN(C)CC3)c2)cc1C
8. Cc1cn(CC(=O)NCC2CCCO2)c(=O)[nH]c1=O (stereo unspecified)

compound no.	1	2	3	4	5	6	7	8
Sfp PPTase inh	14.6%	·	34.7%[activator]	4.2%	12.1%	-9.2%	12.7%	·
TRPV1 potentiator	-13.0	1.0	-2.9	21.2	-13.3	5.4	-14.0	·
PINK1 expr mod	3.2%	-0.8%	6.7%	-2.9%	11.0%	0.7%	1.8%	0.8%
CtBP-E1A inh	0.0	·	2.9	4.1	-10.7	3.2	?	-21.5
D2 potentiator	-16.4	-10.6	-2.4	0.1	-7.3	-3.7	-21.3	-6.4
Six1-Eya2 blk	26.1	-9.7	-3.4	4.8	2.6	5.2	?	2.8
D2 agonist	-4.4	-2.3	-2.1	-11.6	-6.2	-3.8	-3.8	-2.5

9. O=C(O)c1cc([N+](=O)[O-])c(NCCC2=CCCCC2)c([N+](=O)[O-])c1
10. CCOC(=O)c1cnn(-c2ccc([N+](=O)[O-])cc2)c1N
11. C=CCNC(=O)c1ccc2c(=O)n(Cc3ccccc3OC)c(=S)[nH]c2c1
12. CCCOc1ccc(/C=N/Nc2cccc([N+](=O)[O-])c2)c(O)c1
13. CC(=O)Nc1ccc(C(=O)OCC(=O)N2CCN(C(=O)c3ccco3)CC2)cc1
14. O=c1oc2ccccc2c(Nc2cccc3ccccc23)c1[N+](=O)[O-]
15. COC(=O)C1=C(C)NC(C)=C(C(=O)OC)C1c1ccc(OC(=O)c2oc3ccccc3c2C)c(OC)c1
16. COc1ccc(Cc2nc3ccccc3[nH]c2=O)cc1

compound no.	9	10	11	12	13	14	15	16
Sfp PPTase inh	-22.1%	16.7%	14.2%	0.9%	·	-11.2%	11.4%	4.8%
TRPV1 potentiator	6.5	2.8	-16.4	-0.7	3.7	7.3	8.9	-16.3
PINK1 expr mod	-1.6%	0.3%	11.3%	?	0.4%	14.9%	2.1%	0.4%&6.8%
CtBP-E1A inh	0.7	·	·	-11.6	6.4	-11.7	·	0.0
D2 potentiator	-10.9	-12.2	-2.5	5.5	3.7	-2.0	-2.8	-8.0
Six1-Eya2 blk	-5.1	-1.0	-3.9	-13.2	3.5	-2.7	0.8	21.3
D2 agonist	5.0	-2.1	-6.6	-1.9	5.3	-5.2	2.6	-0.1

17. CC(=O)Cc1nsc(NC(=O)c2ccc(COc3ccccc3C)o2)n1
18. Cc1ccccc1NCCC(=O)Nc1ccc(Cl)cc1
19. CCN1CCN(C(=O)CS(=O)(=O)Cc2nc(-c3ccccc3C)oc2C)CC1
20. Cc1cccc(-n2nnc(C(=O)NCc3ccccc3Cl)c2N)c1
21. COc1ccc(NC(=O)CCN2C(=O)C3C4CCC(C4)C3C2=O)cc1 (stereo unspecified)
22. O=C(COC(=O)/C=C/c1ccc(Cl)cc1Cl)NCc1ccco1
23. COC(=O)C1CCN(S(=O)(=O)Cc2ccccc2)CC1
24. N#Cc1sc2nc(-c3cccs3)cc(-c3ccc(Cl)cc3)c2c1N

compound no.	17	18	19	20	21	22	23	24
Sfp PPTase inh	19.5%	-1.0%	3.2%	16.4%	-5.4%	15.0%	?	-1.5%
TRPV1 potentiator	4.7	-6.4	-4.6	-16.6	7.1	-10.1	3.5	1.6
PINK1 expr mod	-0.7%	8.3%	1.3%	0.6%	7.0%	1.6%	2.2%	29.1%[38.3 µM]
CtBP-E1A inh	1.4	-2.3	-0.7	-16.7	0.0	?	1.7	6.5
D2 potentiator	-5.7	-6.3	-7.2	1.9	-4.0	-5.5	-20.4	-10.3
Six1-Eya2 blk	1.5	-0.9	-2.9	-12.5	7.2	-12.7	-3.2	15.0
D2 agonist	1.9	1.7	-3.4	-1.0	3.1	-6.6	-4.6	1.6

25. Cc1cccc(S(=O)(=O)Nc2ccc(-n3c(C)nc4ccccc4c3=O)cc2)c1
26. Cc1ccc2[nH]c(=O)c(CN(Cc3cccs3)C(=S)NCc3ccco3)cc2c1
27. COc1ccc(NC(=S)N2CCC(C(=O)N3CCCCCC3)CC2)cc1
28. COc1ccc(OC)c2[nH]c(=O)c(CCNC(=O)c3ccc(S(=O)(=O)N4CCCC4)cc3)cc12
29. Cc1cccnc1NC(=O)c1ccc(COc2ccccc2)o1
30. CCOC(=O)Cn1c(=O)oc2cc(S(=O)(=O)Nc3ccc(F)cc3)ccc21
31. CCc1ccccc1C1C(=O)c2ccccc2C1=O
32. Cc1ccc2cccc(Oc3ncnc4scc(-c5ccc(Cl)cc5)c34)c2n1

compound no.	25	26	27	28	29	30	31	32
Sfp PPTase inh	·	50.1µM*	-5.5%	5.2%	3.8%	4.7%	·	-5.1%
TRPV1 potentiator	8.3	5.5	28.6	4.2	4.7	-0.6	·	24.7
PINK1 expr mod	1.7%	-0.1%	·	2.8%	3.0%	5.0%	0.8%	4.6%
CtBP-E1A inh	0.1	-14.6	4.4	-0.5	6.2	7.5	-9.5	-0.6
D2 potentiator	-10.7	-15.5	-14.2	6.3	-2.9	-7.1	-3.1	0.5
Six1-Eya2 blk	-5.3	-8.3	3.9	-12.0	6.4	-10.1	-1.6	-10.4
D2 agonist	0.1	0.5	-3.7	-5.2	2.1	-0.8	-3.1	-9.6

33. O=C(CN1C(=O)C2C3C=CC(C3)C2C1=O)Nc1cccc(S(=O)(=O)N2CCCC2)c1 (stereo unspecified)
34. O=S(=O)(Nc1cc(Cl)cc(Cl)c1)N1CCOCC1
35. Cc1ccccc1NC(=O)Cc1nnc(SCC(=O)N2CCN(c3ccccc3)CC2)n1C
36. Cc1cc2c(n1-c1ccc(Cl)cc1)CC(C)(C)CC2=O
37. COC(=O)c1ccc(CNC(=O)C(Cc2ccccc2)NC(=O)c2ccccc2)cc1 (stereo unspecified)
38. Cc1cc(NC(=O)c2sc3ccccc3c2O)no1
39. COC(=O)Cn1c(O)c(N=NC(=O)c2ccc3c(c2)OCO3)c2ccccc21
40. Cc1ccc(/C=N/NC(=O)CN2CCN(Cc3ccccc3)CC2)o1

compound no.	33	34	35	36	37	38	39	40
Sfp PPTase inh	2.1%	14.0%	3.2%	-2.1%	·	-0.5%	9.6%	6.3%
TRPV1 potentiator	7.5	4.7	1.3	-15.8	·	2.5	4.0	-8.6
PINK1 expr mod	1.1%	4.7%	-0.7%	?	5.9%	-0.4%	0.0%	1.2%
CtBP-E1A inh	-10.8	3.1	1.6	-0.1	4.8	3.3	-6.2	·
D2 potentiator	4.5	-2.7	-15.1	-8.2	-8.8	-5.4	-20.7	-1.5
Six1-Eya2 blk	10.5	1.1	7.0	-7.7	-5.8	-2.5	0.6	1.1
D2 agonist	-0.4	-0.3	-2.0	2.5	-0.6	2.1	2.9	-0.4

41. Cc1ccc(OCc2nnc(SCc3cc(=O)[nH]c4ccccc34)n2-c2ccccc2)cc1
42. COc1ccc(C(=O)c2c3ccccc3[n+]([O-])n2CCC(N)=O)cc1
43. O=C(NCCCN1CCOCC1)C(=O)NCC1CCCO1 (stereo unspecified)
44. O=c1cc(CSc2nnc(-c3cccnc3)n2-c2ccccc2F)nc2sccn12
45. Cc1cc(C(=O)NNC(=O)CCCOc2ccccc2)c(C)o1
46. O=C(COC(=O)c1ccc(Cl)nc1)NCc1cccs1
47. Cc1oc(-c2ccc(Cl)cc2)cc1C(=O)/C(C#N)=C/Nc1ccccc1
48. Cc1ccc(OCc2ccc(C(=O)Nc3ccc(S(N)(=O)=O)cc3)o2)cc1

compound no.	41	42	43	44	45	46	47	48
Sfp PPTase inh	?	·	23.8%	6.9%	·	1.5%	?	9.7%
TRPV1 potentiator	0.5	-14.2	2.1	-5.1	27.0	-7.3	1.5	6.3
PINK1 expr mod	-3.3%	0.5%	1.4%	-2.8%[38.3 µM]	0.0%	-1.2%	5.0%	0.8%
CtBP-E1A inh	-10.3	2.7	5.0	6.2	9.1	5.8	-2.7	5.1
D2 potentiator	-4.9	-7.5	-6.2	-2.7	-2.7	-0.2	-0.1	-3.5
Six1-Eya2 blk	-18.1	-2.6	-2.4	0.1	-5.3	3.6	9.3	0.6
D2 agonist	-0.8	-0.9	0.6	-2.0	0.8	-0.7	-0.7	0.1

49. COC(=O)c1oc2ccc(Br)cc2c1-n1cccc1
50. C#CCn1c2ccccc2c(=O)n1C(C)C
51. CC(Cc1ccccc1)C(=O)Nc1ccc(Br)cc1 (stereo unspecified)
52. Cc1cnc(CNC(=O)c2csc([C@H]3C[C@H](O)[C@@H](CO)O3)n2)cn1
53. O=C1c2ccc(-c3nc4ccccc4o3)cc2C(=O)N1Cc1ccccc1
54. Cc1ccc(P(=Nc2ccccc2)(N2CCOCC2)N2CCOCC2)o1
55. O=C(Nc1ccnn1C1CCN(Cc2ccc(Cl)cc2)CC1)C1CCCC1

compound no.	49	50	51	52	53	54	55
Sfp PPTase inh	-25.7%	·	-0.2%	·	·	9.7%	2.6%
TRPV1 potentiator	?	·	-19.3	·	·	-10.8	-25.7
PINK1 expr mod	2.6%	0.7%	3.4%	0.0%	3.2%	·	1.8%
CtBP-E1A inh	-6.4	16.5	·	10.6	4.1	-9.2	6.1
D2 potentiator	0.6	1.4	-6.4	-3.0	-23.7	-12.2	-36.9
Six1-Eya2 blk	-0.9	-4.1	13.1	8.7	-0.8	-1.0	-0.6
D2 agonist	-1.7	-3.4	1.8	-2.3	-3.9	-2.1	-4.8
